Bioassay records deposited in PubChem by Broad Institute.
HIV Env fusion: HIV envelope-mediated fusion inhibition; HeLa-JRFL Env/CEM21 cell fusion, luciferase; inhibition, % at 12.3 µM; 1.1% of 360,000 active; AID 651610;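 active means mean replicate inhibition score of at least 50 and every replicate individually at or above 50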;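 further: 0% = plate neutral controls and 100% = maraviroc near 300 nM; one replicate is shown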
UUG fidelity: modulators of start codon recognition fidelity in yeast; S. cerevisiae UUG-firefly luciferase reporter, luminescence/redox ratio; activity score, % at 18.7 µM; 0.13% of 350,000 active; AID 602363;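 active means replicate mean at a twofold rise or more, about +100% in these data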;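 further: firefly luciferase made from a UUG start codon reports start codon fidelity; reporter light over untreated wells divided by growth signal over untreated wells; some hits fall short of that in this replicate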
An asterisk follows results filed as active; [ ] = dose if it differs, or a comment. Not all compounds are listed; rates above refer to the full screens.

SMILES | HIV Env fusion | UUG fidelity
C[C@H](O)C#Cc1ccc2c(c1)O[C@@H](CN(C)CC1CC1)[C@H](C)CN([C@@H](C)CO)S2(=O)=O | -23.3[16.7 µM] | -6.0
COCC#Cc1ccc2c(c1)O[C@@H](CN(C)C(=O)C1CC1)[C@@H](C)CN([C@@H](C)CO)S2(=O)=O | -4.1[16.7 µM] | 0.9
C[C@@H]1CN([C@H](C)CO)S(=O)(=O)c2ccc(-c3ccncc3)cc2O[C@@H]1CN(C)C(=O)C1CC1 | -0.1[16.7 µM] | -2.9
Cc1noc(C)c1S(=O)(=O)Nc1ccc2c(c1)CC(=O)N([C@@H](C)CO)C[C@@H](C)[C@H](CN(C)Cc1ccccc1)O2 | 11.8[16.7 µM] | -10.1
C[C@@H]1CN([C@H](C)CO)S(=O)(=O)c2ccc(C3=CCCC3)cc2O[C@@H]1CN(C)C(=O)C1CCC1 | 14.0[16.7 µM] | -13.7
C[C@@H]1CN([C@@H](C)CO)C(=O)c2cccc(NC(=O)Nc3ccc(F)cc3)c2O[C@@H]1CN(C)C(=O)Nc1ccc(F)cc1 | -11.4[16.7 µM] | 3.5
CC(C)C#Cc1cnc2c(c1)C(=O)N([C@@H](C)CO)C[C@H](C)[C@H](CN(C)C(=O)Nc1cccc(F)c1)O2 | -10.9[16.7 µM] | 1.5
O=C(C[C@H]1C[C@@H]2c3cc(NC(=O)C4CCC4)ccc3O[C@@H]2[C@@H](CO)O1)NCc1ccc2c(c1)OCO2 | 85.8*[16.7 µM] | -4.8
C/C=C/c1cnc2c(c1)C(=O)N([C@H](C)CO)C[C@@H](C)[C@H](CN(C)C(=O)c1cccc(F)c1)O2 | -13.8[16.7 µM] | 3.4
CO[C@H]1CN(C)C(=O)c2cc(NC(=O)Cc3ccccc3)ccc2OC[C@@H](C)N(C)C[C@H]1C | 1.8[16.7 µM] | -0.9
C[C@@H]1CN([C@H](C)CO)C(=O)c2cc(NC(=O)Nc3cccc4ccccc34)ccc2O[C@H]1CN(C)Cc1ccc2c(c1)OCO2 | 1.9[16.7 µM] | 0.0
Cc1ccc(-c2ccc3c(c2)O[C@@H](CN(C)C(=O)Nc2ccc(F)cc2)[C@H](C)CN([C@H](C)CO)S3(=O)=O)cc1 | 5.3[16.7 µM] | -0.1
C[C@@H]1CN([C@H](C)CO)C(=O)c2cc(C#Cc3ccncc3)cnc2O[C@@H]1CN(C)C(=O)CN(C)C | 1.4[16.7 µM] | -7.5
COc1ccc(NC(=O)N(C)C[C@H]2OCCCC[C@H](C)Oc3ccc(NC(=O)C4CCCCC4)cc3C(=O)N([C@@H](C)CO)C[C@H]2C)cc1 | -6.4[16.7 µM] | 30.1
C[C@@H]1CCCCO[C@H](CN(C)C(=O)Nc2ccc(F)cc2)[C@@H](C)CN([C@H](C)CO)C(=O)c2cc(NC(=O)c3ccncc3)ccc2O1 | 0.7[16.7 µM] | -1.6
COc1ccc(S(=O)(=O)Nc2ccc3c(c2)C(=O)N([C@H](C)CO)C[C@H](C)[C@H](CN(C)CC2CC2)O3)cc1 | 21.8[16.7 µM] | 6.9
COc1cccc(CNC(=O)C[C@@H]2C=C[C@@H](NC(=O)C3CC3)[C@H](CO)O2)c1 | -10.0[16.7 µM] | -13.6
Cc1ccc(S(=O)(=O)N(C)C[C@@H]2Oc3ccc(NS(=O)(=O)c4ccc(F)cc4)cc3C(=O)N([C@H](C)CO)C[C@@H]2C)cc1 | 53.4[16.7 µM] | 15.4
CCS(=O)(=O)Nc1ccc2c(c1)C(=O)N(C)[C@H]1CC[C@@H](CC(=O)Nc3ccccc3)O[C@@H]1CO2 | 15.9[16.7 µM] | 2.6
C[C@@H]1CN([C@@H](C)CO)C(=O)c2cc(NS(=O)(=O)c3cn(C)cn3)ccc2O[C@@H](C)CCCCO[C@@H]1CN(C)C(=O)Nc1ccc2c(c1)OCO2 | 12.2[16.7 µM] | 4.3
Cc1ccc(S(=O)(=O)N(C)C[C@@H]2Oc3c(NC(=O)c4ccncc4)cccc3C(=O)N([C@H](C)CO)C[C@H]2C)cc1 | -17.0[16.7 µM] | -7.8
CN1C(=O)c2cc(NC(=O)c3ccc4c(c3)OCO4)ccc2OC[C@H]2O[C@@H](CC(=O)O)CC[C@H]21 | 5.8[16.7 µM] | 21.5
COc1ccc(CN(C)C[C@H]2Oc3ccc(NC(=O)CCC(F)(F)F)cc3CC(=O)N([C@H](C)CO)C[C@@H]2C)cc1 | 3.1[16.7 µM] | 5.8
C[C@H]1CCCCO[C@H](CN(C)S(=O)(=O)c2ccc(F)cc2)[C@@H](C)CN([C@@H](C)CO)C(=O)c2cc(NS(C)(=O)=O)ccc2O1 | 1.6[16.7 µM] | 20.5
C[C@@H]1CN([C@H](C)CO)C(=O)Cc2cc(NC(=O)C3CCCCC3)ccc2O[C@H]1CN(C)Cc1ccc2c(c1)OCO2 | 19.5[16.7 µM] | 7.8
CCNC(=O)C[C@H]1CC[C@@H]2[C@H](COc3ccc(NC(=O)Nc4ccc(C)cc4)cc3C(=O)N2C)O1 | 4.4[16.7 µM] | -0.6
Cc1ccc(S(=O)(=O)N(C)C[C@H]2OCCCC[C@H](C)Oc3ccc(N(C)C)cc3C(=O)N([C@H](C)CO)C[C@@H]2C)cc1 | -6.6[16.7 µM] | 8.2
COc1ccc(CN(C)C[C@@H]2OCCCC[C@@H](C)Oc3ccc(NC(=O)CCC(F)(F)F)cc3C(=O)N([C@@H](C)CO)C[C@@H]2C)cc1 | 9.4[16.7 µM] | 49.7
O=C(C[C@@H]1C[C@@H]2c3cc(NS(=O)(=O)c4ccc(F)cc4)ccc3O[C@@H]2[C@@H](CO)O1)NCCc1ccccc1 | 51.3[16.7 µM] | -10.9
C[C@H]1CCCCO[C@H](CN(C)CC2CCCCC2)[C@@H](C)CN([C@@H](C)CO)C(=O)c2cc(NC(=O)Nc3ccccc3)ccc2O1 | -5.6[16.7 µM] | 27.7

Entries of single compounds as entered above. Values in the order: HIV Env fusion	UUG fidelity
Cc1ccc(S(=O)(=O)N(C)C[C@@H]2Oc3c(NC(=O)c4ccncc4)cccc3C(=O)N([C@H](C)CO)C[C@H]2C)cc1 reads -17.0[16.7 µM]	-7.8
O=C(C[C@@H]1C[C@@H]2c3cc(NS(=O)(=O)c4ccc(F)cc4)ccc3O[C@@H]2[C@@H](CO)O1)NCCc1ccccc1 reads 51.3[16.7 µM]	-10.9
COc1ccc(CN(C)C[C@@H]2OCCCC[C@@H](C)Oc3ccc(NC(=O)CCC(F)(F)F)cc3C(=O)N([C@@H](C)CO)C[C@@H]2C)cc1 reads 9.4[16.7 µM]	49.7
CCNC(=O)C[C@H]1CC[C@@H]2[C@H](COc3ccc(NC(=O)Nc4ccc(C)cc4)cc3C(=O)N2C)O1 reads 4.4[16.7 µM]	-0.6

Continued:
SMILES | HIV Env fusion | UUG fidelity
C[C@H]1CN([C@@H](C)CO)C(=O)c2cc(C#Cc3ccc(F)cc3)cnc2O[C@@H]1CN(C)C(=O)c1ccccc1F | -3.3[16.7 µM] | -5.7
CC(C)NC(=O)N(C)C[C@H]1Oc2ccc(NC(=O)Nc3cccc4ccccc34)cc2CC(=O)N([C@H](C)CO)C[C@H]1C | 16.6[16.7 µM] | 0.4
CCCNC(=O)N1[C@H](C#N)[C@H](c2ccc(-c3cccnc3)cc2)[C@@H]1CO | 63.9*[16.7 µM] | 16.8
C[C@H](CO)N1C[C@H](C)[C@@H](CN(C)Cc2ccncc2)Oc2cc(-c3ccncc3)ccc2S1(=O)=O | 1.6[16.7 µM] | -11.0
COc1ccccc1NC(=O)N[C@H]1CC[C@H](CCNS(=O)(=O)c2ccc(Cl)cc2)O[C@@H]1CO | -12.7[16.7 µM] | 3.2
Cc1ccc(S(=O)(=O)Nc2ccc3c(c2)C(=O)N([C@@H](C)CO)C[C@@H](C)[C@H](CN(C)C)OCCCC[C@@H](C)O3)cc1 | -12.4[16.7 µM] | -3.1
O=C(Cc1ccccn1)NCC[C@H]1CC[C@H](NS(=O)(=O)c2ccc(F)cc2)[C@@H](CO)O1 | -11.1[16.7 µM] | -1.1
C[C@H](CO)N1C[C@H](C)[C@@H](CN(C)C(=O)Nc2ccc(F)cc2)Oc2c(NC(=O)C3CCOCC3)cccc2C1=O | -8.2[16.7 µM] | -10.6
CO[C@H]1CN(C)C(=O)c2cc(NC(=O)Nc3ccc(Cl)cc3)ccc2OC[C@H](C)N(C)C[C@@H]1C | 5.2[16.7 µM] | 11.9
C[C@@H]1CN([C@H](C)CO)C(=O)Cc2cc(NC(=O)Nc3ccc(F)cc3)ccc2O[C@H]1CN(C)C(=O)Nc1cccc2ccccc12 | 6.5[16.7 µM] | 3.5
C[C@@H]1CN([C@@H](C)CO)C(=O)c2cc(/C=C/c3ccccc3)cnc2O[C@@H]1CN(C)Cc1ccccc1 | 10.7[16.7 µM] | -8.9
C[C@@H]1CN([C@H](C)CO)C(=O)Cc2cc(NC(=O)Cc3cn(C)c4ccccc34)ccc2O[C@@H]1CN(C)Cc1ccccc1 | 18.3[16.7 µM] | -3.4
CC(C)NC(=O)N(C)C[C@H]1Oc2ncc(C#CCc3ccccc3)cc2C(=O)N([C@@H](C)CO)C[C@@H]1C | 9.4[16.7 µM] | 17.6
O=C(C[C@H]1C=C[C@@H](NC(=O)C2CCOCC2)[C@H](CO)O1)NCc1ccncc1 | 12.0[16.7 µM] | -17.0
COc1ccc(S(=O)(=O)Nc2ccc3c(c2)CC(=O)N([C@@H](C)CO)C[C@@H](C)[C@@H](CN(C)CC2CCCCC2)O3)cc1 | -11.0[16.7 µM] | -3.5

Arranged by count of non-hydrogen atoms (ascending): some entries from above
SMILES | HIV Env fusion | UUG fidelity
C/C=C/c1cnc2c(c1)C(=O)N([C@H](C)CO)C[C@@H](C)[C@H](CN(C)C(=O)c1cccc(F)c1)O2 | -13.8[16.7 µM] | 3.4
CN1C(=O)c2cc(NC(=O)c3ccc4c(c3)OCO4)ccc2OC[C@H]2O[C@@H](CC(=O)O)CC[C@H]21 | 5.8[16.7 µM] | 21.5
Cc1ccc(S(=O)(=O)N(C)C[C@H]2OCCCC[C@H](C)Oc3ccc(N(C)C)cc3C(=O)N([C@H](C)CO)C[C@@H]2C)cc1 | -6.6[16.7 µM] | 8.2

Next part:
SMILES | HIV Env fusion | UUG fidelity
C[C@@H]1CN([C@H](C)CO)C(=O)c2cc(NC(=O)Nc3cccc4ccccc34)ccc2O[C@@H](C)CCCCO[C@H]1CN(C)S(=O)(=O)c1ccccc1 | -8.5[16.7 µM] | -13.0
CC(C)CC#Cc1cnc2c(c1)C(=O)N([C@H](C)CO)C[C@@H](C)[C@H](CN(C)C(=O)NC1CCCC1)O2 | -10.7[16.7 µM] | 6.6
COCC(=O)N(C)C[C@H]1Oc2ncc(C#Cc3ccc(F)cc3)cc2C(=O)N([C@H](C)CO)C[C@H]1C | -1.8[16.7 µM] | 26.3
Cc1noc(C)c1S(=O)(=O)N(C)C[C@@H]1Oc2ccc(NC(=O)Cn3cnnn3)cc2CC(=O)N([C@@H](C)CO)C[C@H]1C | -5.8[16.7 µM] | 8.2
C[C@H](CO)N1C[C@H](C)[C@H](CN(C)C)OCCCC[C@H](C)Oc2ccc(NC(=O)Nc3ccc4c(c3)OCO4)cc2C1=O | 25.3[16.7 µM] | 8.7
C[C@@H]1CCCCO[C@@H](CN(C)C(=O)c2ccccc2)[C@@H](C)CN([C@H](C)CO)C(=O)c2cc(NS(=O)(=O)c3ccccc3)ccc2O1 | 9.3[16.7 µM] | -6.3
CC(C)NC(=O)N(C)C[C@H]1Oc2cc(-c3ccccc3F)ccc2S(=O)(=O)N([C@@H](C)CO)C[C@@H]1C | 19.0[16.7 µM] | 12.1
CC(C)NC(=O)N(C)C[C@H]1Oc2cc(-c3cncnc3)ccc2S(=O)(=O)N([C@H](C)CO)C[C@H]1C | -0.7[16.7 µM] | -12.7
COc1ccc(S(=O)(=O)N(C)C[C@H]2Oc3ccc(NC(=O)NC4CCCCC4)cc3CC(=O)N([C@@H](C)CO)C[C@H]2C)cc1 | 0.2[16.7 µM] | 5.7
C[C@@H]1CCCCO[C@@H](CN(C)C(=O)Nc2ccc(F)cc2)[C@H](C)CN([C@H](C)CO)C(=O)c2cc(N(C)C)ccc2O1 | -5.0[16.7 µM] | -4.9
COc1ccc(NC(=O)Nc2ccc3c(c2)C(=O)N([C@H](C)CO)C[C@H](C)[C@@H](CN(C)C(=O)NC2CCCCC2)OCCCC[C@H](C)O3)cc1 | 17.1[16.7 µM] | 2.2
C[C@@H]1CN([C@H](C)CO)C(=O)Cc2cc(NC(=O)C3CCCCC3)ccc2O[C@H]1CN(C)C(=O)Nc1cccc2ccccc12 | 5.2[16.7 µM] | 1.2
CO[C@H]1CN(C)C(=O)c2cc(NS(=O)(=O)c3ccc(Cl)cc3)ccc2OC[C@@H](C)NC[C@H]1C | -9.3[16.7 µM] | -4.7
O=C(CCN1CCCCC1)NCC[C@H]1CC[C@H](NC(=O)c2ccc(F)cc2)[C@H](CO)O1 | 16.2[16.7 µM] | -6.8
C[C@@H]1CN([C@H](C)CO)C(=O)Cc2cc(NS(=O)(=O)c3ccc(F)cc3)ccc2O[C@@H]1CN(C)S(C)(=O)=O | 2.2[16.7 µM] | -14.6
C[C@@H]1CN([C@H](C)CO)C(=O)c2cc(-c3ccncc3)cnc2O[C@@H]1CN(C)S(=O)(=O)c1ccccc1 | -7.2[16.7 µM] | -6.1
C[C@H]1CN([C@@H](C)CO)C(=O)c2cc(C3=CCCCC3)cnc2O[C@@H]1CN(C)S(=O)(=O)c1cn(C)cn1 | -5.4[16.7 µM] | -3.7
C[C@H](CO)N1C[C@H](C)[C@H](CN(C)Cc2ccncc2)Oc2c(NC(=O)C3CC3)cccc2C1=O | -8.0[16.7 µM] | 22.0
C[C@H]1CN([C@@H](C)CO)C(=O)c2cccc(NC(=O)Nc3ccc4c(c3)OCO4)c2O[C@H]1CN(C)Cc1ccc(C(F)(F)F)cc1 | -9.1[16.7 µM] | 6.3
CCCC(=O)Nc1ccc2c(c1)OC[C@H](C)N(C(=O)CC1CC1)C[C@@H](C)[C@H](OC)CN(C)C2=O | 9.1[16.7 µM] | -6.8
